Biofilm kill mix: clotrimazole potentiators killing C. albicans biofilm, primary screen, 4-compound mixtures. inhibition, % at 7.6 µM. C. albicans biofilm persisters + clotrimazole, fluorescence viability; primary screen in compound mixtures of four per well. 0.02% of 120,000 active;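 active = inhibition above 30.3% in the primary screen of four-compound pools, then above 30% when the compound was retested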;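 also: compounds exposed to preformed 24 h biofilms for 48 h; the number belongs to the whole pool; some results filed as inactive read as strong as hits; inactives centre near 12; 0% = biofilm with clotrimazole alone and 100% = kill control; retested singly at about 60 µM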
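Test system: C. albicans biofilms. Buffer or medium: RPMI/MOPS medium, pH 7.0. Timing: 48 h compound exposure at 37 °C. Technique: Alamar Blue fluorescence. Evaluation: percent inhibition of biofilm viability.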
* hit, by the source's call. Only part of the results is shown; rates above refer to the full screens.

SMILES	Biofilm kill mix
O=C(O)CC1(CC(=O)Nc2ccc3sccc3c2)CCCCC1	18.0
S=c1[nH]cc(Cc2ccccc2)s1	14.2
O=C(NC(Cc1c[nH]c2ccccc12)C(=O)O)/C(=C/c1ccc(F)cc1)NC(=O)c1ccccc1 (configuration not stated)	9.2
Cc1ccccc1Cn1nc(C)c(NC(=O)C2c3ccccc3Oc3ccccc32)c1C	13.1
CCOc1cc(S(=O)(=O)n2nc(C)cc2C)ccc1Br	6.3
COCCC1CCCCN1C(=O)c1cccc(OC2CCN(C3CCCC3)CC2)c1 (configuration not stated)	8.3
N/C(=N\c1nc2ccccc2o1)NC(=O)c1ccc(Cl)cc1	0.3
Cc1ccc(N/C(N)=N/c2nc(C(F)(F)F)cc(C(F)(F)F)n2)cc1	13.8
O=C(CN1CCCCC1)NC(=O)NC1CCCC1	2.5
Cc1ccc(SCCC(=O)N/N=C/c2cccnc2)cc1	2.7
O=c1cc(-c2ccc(F)cc2)[nH][nH]1	14.2
O=C(Nc1nc(-c2cccs2)cs1)c1ccco1	0.7
CC(O)c1nc2c(c(=O)n(C)c(=O)n2C)n1C (configuration not stated)	-2.2
NC(=O)CSc1nc2c(c(=O)n1-c1ccccc1)C1(CCCCC1)Cc1ccccc1-2	13.0
COC(=O)c1c(NC(=O)CSc2nc3ccccc3c(=O)n2-c2ccccc2)sc(C)c1C	-2.9
CC(C)C(C(=O)NCc1ccco1)N(CC1CCCO1)C(=O)CNS(=O)(=O)c1ccccc1 (configuration not stated)	8.1
C=CC(c1ccccc1)C(C(=O)c1ccccc1)N(C)C (configuration not stated)	14.9
O=C(c1ccc(Cl)cc1)C1CCCN(Cc2cnn(-c3ccccc3)c2)C1 (configuration not stated)	14.2
O=c1[nH]c(-c2cccnc2)nc2sc(-c3ccccc3)cc12	8.4
CC(=O)N=c1c(C#N)cc2c(=O)n3ccccc3nc2n1CCCOC(C)C	14.9

Laid out differently: results already given
| mol | Biofilm kill mix |
| --- | --- |
| S=c1[nH]cc(Cc2ccccc2)s1 | 14.2 |
| O=C(NC(Cc1c[nH]c2ccccc12)C(=O)O)/C(=C/c1ccc(F)cc1)NC(=O)c1ccccc1 (configuration not stated) | 9.2 |
| Cc1ccccc1Cn1nc(C)c(NC(=O)C2c3ccccc3Oc3ccccc32)c1C | 13.1 |
| CCOc1cc(S(=O)(=O)n2nc(C)cc2C)ccc1Br | 6.3 |

Next part.
SMILES	Biofilm kill mix
COc1ccc(CCNC(=O)CN(CCc2ccccc2)S(C)(=O)=O)cc1OC	13.8
Cc1cccc(-c2n[nH]c(=S)n2Cc2ccccc2)c1	13.8
Cc1nc(-c2ccc(S(=O)(=O)NCc3cccnc3)s2)cs1	13.8
O=C(N/N=C/C=C/c1ccco1)c1cnccn1	18.6
COc1ccc(C)c(-n2c(=O)n(Cc3ccccc3)c(=O)c3[nH]cnc32)c1	26.9
CC(CCc1ccccc1)NC(=O)c1ccc(NC(=O)c2cccc(Br)c2)cc1 (configuration not stated)	10.3
O=C1CNC(=O)/C(=C/c2ccco2)N1	10.8
CC1CC(C)(C)N(C(=O)CN2C(=O)c3ccccc3C2=O)c2ccccc21 (configuration not stated)	9.5
C=C(C)CNC(=S)Nc1sc2c(c1C(=O)OCC)CC(C)(C)OC2	7.2
CC1CC(C)CN(CC(=O)c2cccs2)C1 (configuration not stated)	5.9
Cc1ccc(-c2cc(C(=O)Nc3sc4c(c3C(=O)NCc3ccco3)CCC4)[nH]n2)c(O)c1	8.1
O=C(c1ccccc1Sc1ccc([N+](=O)[O-])cc1)N1CCCCC1	16.0
CC(c1ccco1)N(C(=O)c1ccccc1NS(=O)(=O)c1cccc([N+](=O)[O-])c1)c1ccccn1 (configuration not stated)	7.4
C#CCOCCOCCOCCNc1nc(N2CCN(C(=O)[C@H]([C@@H](C)CC)n3cc([C@@H](N)CC(C)C)nn3)CC2)nc(N2CCN(C(=O)[C@H](Cc3cc4ccccc4[nH]3)n3cc([C@@H](N)C(C)CC)nn3)CC2)n1 (some centres not stated)	7.6
Cc1ccc(S(=O)(=O)Nc2ccccc2CNC2CCCCC2)cc1	9.2
Cc1ccc(-c2c[nH]c(=S)n2-c2ccccc2F)cc1	12.2
COc1ccc(Nc2nc(Cl)nc(NCCO)n2)cc1	20.1
Cc1sc(C(=O)Nc2ccc3ccccc3c2)cc1CC(=O)O	18.9
Cc1ccc(C)c(NC(=S)NCC(c2cccnc2)N2CCOCC2)c1 (configuration not stated)	8.8
CN1CCN(CCC(=O)Nc2ccc(C3CCCC3)cc2)CC1	-1.6

Molecules from the list above that have fluorine, in the order listed:
SMILES	Biofilm kill mix
O=C(NC(Cc1c[nH]c2ccccc12)C(=O)O)/C(=C/c1ccc(F)cc1)NC(=O)c1ccccc1 (configuration not stated)	9.2
Cc1ccc(N/C(N)=N/c2nc(C(F)(F)F)cc(C(F)(F)F)n2)cc1	13.8
O=c1cc(-c2ccc(F)cc2)[nH][nH]1	14.2
Cc1ccc(-c2c[nH]c(=S)n2-c2ccccc2F)cc1	12.2

More records follow.
SMILES	Biofilm kill mix
Cc1nc2cc(NC(=O)Nc3cccc4ccccc34)ccc2n1C	1.3
O=C(C[n+]1ccc2ccccc2c1)Nc1cc(C(F)(F)F)ccc1Cl	19.2
CC(C)=CC(=O)Nc1ccc(S(=O)(=O)Nc2ccccn2)cc1	8.4
CC(C)CNC(=O)COC(=O)CCC(=O)c1ccc(Cl)cc1	12.9
O=C1N=C(N2CCCC2)S/C1=C\C=C\c1ccccc1	22.2
COc1ccc(Br)cc1CN(C)CC(=O)Nc1c(Cl)cccc1Cl	8.7
C[n+]1cccc(C2C(C#N)=C(N)Oc3c2ccc2ccccc32)c1 (configuration not stated)	0.0
O=C(CCc1ccccn1)NC1CCCc2c1cnn2-c1ccc(F)cc1F (configuration not stated)	28.6
Nc1nc(CSC(=S)N2CCN(c3ccccc3)CC2)nc(Nc2ccc(F)cc2)n1	9.3
O=Cc1cccc(Oc2ccc([N+](=O)[O-])cc2[N+](=O)[O-])c1	-0.8
COc1ccc(C(=O)NCc2nnc(SCC(=O)N3CCOCC3)o2)cc1	14.4
S=C(NCCCN1CCOCC1)Nc1ccc(Nc2ccccc2)cc1	3.0
O=C(Nc1cccc2ccccc12)NC1Cc2ccccc2C1	12.4
CS(=O)(=O)c1nsc2nc(=O)c(/C=C3\C=Nc4ccccc43)c(N)n12	15.9
CC(C)Cn1cc(Cl)c(=O)n(CC(C)C)c1=O	7.0
O=C(O)c1cccc(C(=O)c2cccc(C(=O)O)c2)c1	-13.3
COc1ccc(N(CC(=O)N/N=C/c2cc3ccc(OC)cc3nc2Cl)S(=O)(=O)c2ccccc2)cc1	5.4
CCC(C(=O)N1CCN(c2ccccc2OC)CC1)c1ccccc1 (configuration not stated)	5.0
CCCCCCn1c(O)c(/C=C2\C=NN=C2c2ccccc2)sc1=S	20.7
CC(=O)Nc1nnc(CSCc2ccc(F)cc2)s1	16.3
O=C(CC1C(=O)NCCN1CC1CCCCC1)NCc1ccc(F)cc1F (configuration not stated)	11.9
Cc1ccc(C)n1-c1ccc(N(C)C)cc1	21.3
C/C(=C\C(=O)Nc1cscc1C)C(=O)O	7.1
Cc1nc2sc3c(c2c(=N)n1N)CCCC3	13.6
CCc1ccccc1NC(=S)N1CCC(NC(=O)c2ccc(OC)cc2)CC1	9.0
Cc1nccn1CCC(=O)Nc1ccc(Cl)cc1	8.2
C=C(C)C(=O)O[C@H]1C/C(C)=C\C(=O)/C=C(\C)[C@H](O)[C@@H]2OC(=O)C(=C)[C@@H]21	3.8
Cc1ccc(-c2c[n+]3c(n2-c2ccccc2)SCC3)cc1	35.7
FC(F)(F)c1nnc2n1N=C(c1cccs1)CS2	4.0
Cc1c(Br)c([N+](=O)[O-])nn1CC(=O)N(C)Cc1ccccc1	-9.8
CNS(=O)(=O)c1ccc(NS(=O)(=O)c2ccccc2F)cc1	12.5
CC(C)(C)c1cnnn1-c1ccc(C=O)cc1	-5.7
Cc1cccc(/C=N/NC(=O)Cn2nccc2C)n1	-7.3
CCC1CCCCN1C(=S)Nc1ccc(OC(F)F)cc1 (configuration not stated)	9.6
O=C(O)CC/C(=N\NC(=O)CNC(=O)c1cccc(Cl)c1)c1ccccc1	31.1
CCCC(=NCCc1c(C)[nH]c2ccccc12)C1=C(O)CC(c2ccccc2)CC1=O (configuration not stated)	11.7
CCN(Cc1ccncc1)Cc1nc(Cc2ccccc2Cl)no1	10.4
O=C1CSC(c2cccnc2)N1Cc1ccc(Cl)cc1 (configuration not stated)	17.4
O=C(CSc1ccccn1)Nc1cccc([N+](=O)[O-])c1	15.0
O=C(NCCN1C(=O)S/C(=C/c2ccccc2)C1=O)C1CCCN1C(=O)c1cccs1 (configuration not stated)	16.4

An excerpt from above in order of SMILES length, rising.
SMILES	Biofilm kill mix
CC(C)(C)c1cnnn1-c1ccc(C=O)cc1	-5.7
FC(F)(F)c1nnc2n1N=C(c1cccs1)CS2	4.0
CNS(=O)(=O)c1ccc(NS(=O)(=O)c2ccccc2F)cc1	12.5

(next part)
SMILES	Biofilm kill mix
Cc1nn(Cc2c(Cl)cccc2Cl)c(C)c1NC(=O)CCCn1nc([N+](=O)[O-])c(Cl)c1C	22.9
O=Nc1onc(-c2ccc([N+](=O)[O-])cc2)c1NO	1.6
CCCC(=O)Nc1cc(C)c(NC(=O)c2cccs2)cn1	12.6
CN(CC1CCCO1)S(=O)(=O)c1ccc(C(=O)Nc2nccs2)cc1 (configuration not stated)	30.7
CCn1c(C)nc2cc(OC)ccc21	5.2
COc1cc(NC(N)=S)c(OC)cc1Cl	19.5
O=C(NC(=S)NCc1ccncc1)c1ccccc1	5.0
COc1cc(/C=C2\N=C(c3ccccc3)OC2=O)ccc1OCc1c(C)no[n+]1[O-]	8.9
Cc1ccc(CNS(=O)(=O)c2ccc3c(c2)CCN3C(=O)CCCC(=O)O)cc1	9.0
Cc1ccc(Nc2ncnc3ccccc23)cc1	30.3
NNC(=O)Cn1cnc2ccccc21	13.4
CCCc1c(C(=O)NNc2cccc(Cl)c2)cnn1-c1ccccc1	11.2
Cc1ccccc1OCCOC(=O)c1nc2nccc(C)n2n1	11.6
CC(NCC(O)c1ccc([N+](=O)[O-])cc1)C12CC3CC(CC(C3)C1)C2 (configuration not stated)	-0.6
CCN(CC)c1ccc(/C=C2/SC(=O)N(C(C)C)C2=O)o1	17.6
COc1ccc(-n2c(C)cc(/C=N/Nc3nc(N4CCOCC4)nc(N4CCOCC4)n3)c2C)cc1	12.3
COC(=O)C1C(=O)C=C(Nc2ccc(F)cc2F)CC1c1ccc(OC)cc1 (configuration not stated)	1.7
CCOC(=O)Cn1c(=NC(=O)c2cccs2)sc2cc(C(=O)OC)ccc21	10.0
Brc1ccccc1C1=Nn2c(nnc2-c2ccco2)SC1	27.5
CCCNC(=O)C12CCC(C)(C(=O)O1)C2(C)C (configuration not stated)	21.6
Cc1nc(N2CCOCC2)c2c(C)c(C(=O)Nc3ccccc3C(F)(F)F)sc2n1	16.4
O=C(COC(=O)/C=C/C(=O)OCC(=O)Nc1ccccc1F)Nc1ccccc1F	9.3
Cc1ccc(N2C(=O)CC(Sc3cccs3)C2=O)cc1 (configuration not stated)	19.0
Cc1ccc(OCCOCCN2CCN(C)CC2)c([N+](=O)[O-])c1	19.0
CCOc1ccc2nc(COC(=O)c3ccncc3)c(C(=O)c3ccccc3)[n+]([O-])c2c1	8.6
Fc1ccc(N2CCN(c3nnnn3-c3ccccc3)CC2)cc1	22.3
CC(=O)Nc1cccc(-c2nc3ccccc3[nH]2)c1	9.1
CCCOCC(O)CCc1n[nH]c(=S)n1-c1ccccc1 (configuration not stated)	9.2
COc1ccccc1NC(=S)N1CCN(c2nc(-c3ccccc3)cs2)CC1	-1.6
O=C(O)c1cc([N+](=O)[O-])ccc1N1CCCCC1	10.1
O=C(/C=C/c1cccc(Cl)c1)NCCc1ccccc1	11.6
CN(C)CCC(=O)c1cccc(Br)c1	4.9
Cc1c(NC(=O)C(=O)N/N=C/c2cccs2)c(=O)n(-c2ccccc2)n1C	24.3
Cc1ccc(N2CCN(c3ccc(NC(=O)CCC(=O)O)cc3)CC2)cc1	2.4
COc1ccc(S(=O)(=O)Nc2nc3ccccc3nc2NCc2ccc3c(c2)OCO3)cc1	14.6
CC1=C(Cl)C2=NS(=O)(=O)CCN2C=C1Cl	0.1
CCOc1cc(/C=N\NC(N)=O)cc(Br)c1OC(C)C	10.0
O=C(/C=C/c1ccc(F)cc1)NC(=S)N1CCCCC1c1cccnc1 (configuration not stated)	17.3
Cc1cccc(-n2nc(C(=O)c3ccco3)cc(-c3nc4ccccc4[nH]3)c2=N)c1	1.6
C=CCOc1ccn(C)c(=O)n1	13.6
CC(=O)NC(=S)Nc1sc2c(c1C#N)CCCCC2	17.1
OCCNc1nc(Nc2ccc(Br)cc2)nc2ccccc12	7.8
CC(=O)Nc1ccc(-n2nnnc2SCC(=O)Nc2cccc(NC(=O)c3ccco3)c2)cc1	14.9
COC(=O)C1=NN(c2ccc(C)cc2)C2C(=O)N(c3ccccc3OC)C(=O)C12 (configuration not stated)	27.0
COC(=O)/C(C#N)=C/N(C)C	15.9
O=C(/C=C/c1ccc(Cl)c(Cl)c1)NCc1ccco1	11.6
O=C(COC(=O)c1c(Cl)ccc(Cl)c1Cl)NC1CCS(=O)(=O)C1 (configuration not stated)	13.0
NC(=O)c1ccc(N=Nc2c(O)c3ccccc3[nH]c2=O)cc1	11.2
O=C(O)CCC(=O)Nc1ccc(Oc2ncnc3cc(Cl)ccc23)nc1	14.8
NNC(=O)c1ccccc1-n1cccc1	-10.4
Cc1cc(C)nc(-n2ncc(C#N)c2N)n1	-2.7
O=C(c1ccc(NC(=O)C2(c3ccccc3)CCCC2)cc1)N1CCOCC1	20.4
C/C(=N\NC(=O)c1ccc(F)cc1)c1ccc(N2CCOCC2)cc1	13.0
COC(=O)C1=NN(C(C)(C)CC(C)=O)C2C(=O)N(C3CCCCC3)C(=O)C12 (configuration not stated)	5.5
O=C(/C=C/c1c(F)cccc1Cl)Nc1ncccn1	17.6
COc1ccc(OCC(=O)N2CCN(c3nnc(-c4ccc(C)cc4)c4ccccc34)CC2)cc1	18.4
